Bioassay records deposited in PubChem by National Center for Advancing Translational Sciences (NCATS).
TRPML1 agonist: human mucolipin-1 channel agonism; Q9GZU1; TRPML1-expressing cells, Ca2+ dye fluorescence, FDSS; host cell line not named in the record; reference of the full effect not given here; activation, % (concentration not given with the values); actives 0.12% (n = 410,000); AID 624414; in the data active = activation above about 50%; inconclusive = about 30% to 50%; inactive = below about 30%; note: 0% is about no effect; the text of the record puts the active cut at 80%
Target sequence (Q9GZU1 whole entry, looked up): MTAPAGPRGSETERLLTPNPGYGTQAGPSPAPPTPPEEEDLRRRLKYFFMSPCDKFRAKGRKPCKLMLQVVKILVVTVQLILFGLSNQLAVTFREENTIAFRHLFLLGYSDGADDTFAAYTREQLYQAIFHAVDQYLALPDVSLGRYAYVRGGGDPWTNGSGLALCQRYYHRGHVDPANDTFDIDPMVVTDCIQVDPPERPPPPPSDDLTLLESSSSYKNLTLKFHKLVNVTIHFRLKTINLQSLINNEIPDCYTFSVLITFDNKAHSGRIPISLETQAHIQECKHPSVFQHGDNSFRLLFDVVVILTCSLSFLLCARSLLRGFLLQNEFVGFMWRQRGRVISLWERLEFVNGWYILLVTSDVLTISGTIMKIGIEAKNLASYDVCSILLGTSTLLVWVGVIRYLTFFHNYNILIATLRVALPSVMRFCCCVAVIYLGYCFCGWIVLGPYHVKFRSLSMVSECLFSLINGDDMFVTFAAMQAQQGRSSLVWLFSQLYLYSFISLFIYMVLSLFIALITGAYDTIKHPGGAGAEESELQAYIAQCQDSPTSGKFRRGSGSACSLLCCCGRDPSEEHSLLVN
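Cells: TRPML1-DL, 1X Tet inducer, ~16 h at 37 degrees C/5% CO2. Dye: ABD Ca8 no-wash + quencher, 45-90 min RT. Read: 10 s baseline, compound add, 110 s agonist phase; 54-4 EC80 (4uM final), 110 s antagonist phase.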
ClpP mod: qHTS Assay for Activators of ClpP | purified B. subtilis ClpP, FRET peptide cleavage, 20 min | Potency, µM (doses to about 57.5 µM), inactives show at the highest dose activity change, negative = active | actives 1.9% (n = 340,000) | AID 651965, 2013; active = well fitted falling curve with a large enough effect; inconclusive = small, poorly fitted or top-dose-only effect; inactive = no such curve, though single readings can be large or run the other way; note: potency is the fitted concentration of half-maximal effect; the source files actives as falling curves though it sought activators and does not explain the sign; nearly all actives have a fitted effect of over 65% in size; many hits overshoot -100%
Target sequence (P80244 whole entry, looked up): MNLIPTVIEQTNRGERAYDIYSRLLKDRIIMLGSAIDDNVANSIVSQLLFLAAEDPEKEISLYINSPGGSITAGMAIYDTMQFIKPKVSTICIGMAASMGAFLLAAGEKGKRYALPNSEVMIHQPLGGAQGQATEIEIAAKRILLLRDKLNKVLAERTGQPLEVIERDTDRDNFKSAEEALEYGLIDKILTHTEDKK
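FRET quenching reversal measured ClpP activation: 10 microg/mL B. subtilis ClpP at pH 8 with the FRET-FV decapeptide, read at 430 nm after 320 nm excitation. The 20-min minus 0-min signal was scaled between DMSO/no-enzyme wells and ADEP (5.8 microM final).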
gsp ag: agonists of gsp mutant (McCune-Albright syndrome). gsp mutant cells, cAMP HTRF, 30 min; control for the full effect not named in the record. Potency, µM (series often up to 76.9 µM), for the others: at the top dose activation (cAMP increase), usual class: activators. actives 0.13% (n = 340,000). AID 624287; active = well fitted activation curve with a large enough effect; inconclusive = small, poorly fitted or top-dose-only effect, or another doubt; inactive = no such curve, though single readings can be large or run the other way; cell line not stated here;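 note: phosphodiesterase inhibitor Ro 20-1724 added with compounds to block cAMP breakdown; potency is the fitted concentration of half-maximal effect; nearly all actives have a fitted effect of over 60% in size; about a fifth of the inactives were tested at one dose only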
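Cells in DMEM/10% FBS with G418 were pretreated with compounds in DMSO plus […] (300 uM stock) for 30 min at 37C. cAMP was measured by HTRF (cAMP-d2 plus anti-cAMP antibody-K) after 30 min at room temperature.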
TRPML1 blocker: inhibitors of human TRPML1 channel; Q9GZU1; activity change, negative = inhibition, % (no concentration beside the values); actives 0.02% (n = 390,000); AID 624415; TRPML1-inducible cells, Ca2+ dye fluorescence, FDSS; hits give low values; inhibition of EC80 agonist-evoked calcium signal; in the data active means activity change below about -50%; inconclusive means about -30% to -50%; inactive means above about -30%;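 note: stimulus is agonist 54-4 at its EC80 concentration; % is set by controls: 0 for no effect and ±100 for the full control effect; compound concentration not given in the record; the text of the record puts the active cut at -80%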
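TRPML1-DL cells, Tet-induced overnight (~16 h, 37 °C) at 1,500 cells/well, were loaded with Ca8 no-wash dye plus quencher for 45-90 min at room temperature. Compounds were pinned during FDSS kinetic reading; agonist 54-4 at EC80 (4 uM final) then added.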
Menin MLL FP FL: inhibitors of human menin-MLL interaction, wild-type MLL peptide | Fluorescence polarization, fluorescein-MLL peptide displacement from menin | FP activity change, % at 61.4 µM | 290,000 tested, under 10 active; inconclusive = falling polarisation curve, or a change in total fluorescence; inactive = total fluorescence flat and polarisation flat or rising; no compound was filed as active; the % refers to the polarisation; negative = inhibition;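 note: % of control where 0% means no effect; inhibitors lower the polarisation; unlabelled MLL peptide was the positive control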
gsp antagonist: antagonists of gsp mutant (McCune-Albright syndrome). Potency, µM (highest dose often 76.9 µM), for inactives: at the top dose activity change, negative = inhibition, usual class: inhibitors. actives 0.4% (n = 340,000). gsp-mutant cells, cAMP HTRF, 30 min; control for the full effect not named in the record; active = falling curve of any shape with a large fitted effect; inconclusive = falling curve, mostly with a smaller effect; inactive = flat or rising curve; cell line not stated here;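 note: intracellular cAMP measured with PDE inhibitor Ro 20-1724 present during compound exposure; potency is the fitted concentration of half-maximal effect; % is set by controls: 0 for no effect and ±100 for the full control effect; nearly all actives have a fitted effect of over 65% in size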
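Measurement of cellular cAMP by homogeneous time-resolved fluorescence following a 30 min compound exposure at 37C. The PDE inhibitor […] was present throughout; the assay buffer was DPBS with 0.05% BSA and 0.005% Tween 20.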
* marks the source's active call; other numbers are inactive results; ? = inconclusive; / = no result given; [ ] = remark or other dose.

[1] CC(C)NS(=O)(=O)c1ccc(N2C(=O)c3ccccc3C2=O)cc1
[2] COc1cccc(/C=C/c2onc(C)c2S(=O)(=O)N2CCC(C(=O)NC3CCCCCC3)CC2)c1
[3] C1=CC2CC1CC2CNCc1ccco1 (stereo unspecified)
[4] CN(CC(=O)Nc1ccccc1Cl)C(=O)CCNC(=O)Nc1ccccc1
[5] COc1ccc(C2/C=C\CN(C(=O)c3ccc(C)cc3)[C@H](Cc3ccccc3)C(=O)N2Cc2ccc(F)cc2)cc1 (stereo partly specified)
[6] Cc1ccc(-n2nc3c([n+]2[O-])CCc2nonc2-3)cc1
[7] CCOc1ccccc1CN1CCNC(=O)C1CC(=O)NCc1cc(C)n(C)n1 (stereo unspecified)
[8] COc1cc(NC(=O)CN(c2ccc(C)cc2)S(=O)(=O)c2c(C)noc2C)cc(OC)c1

assay / entry,1,2,3,4,5,6,7,8
TRPML1 agonist,-0.1,-0.4,0.0,-0.4,2.8,-0.6,1.4,0.6
ClpP mod,1.5%,-5.1%,0.6%,-0.8%,1.1%,/,-1.9%,/
gsp ag,?,6%,-43%[inhibitor],3%,/,1%[15.4 µM],-31%[inhibitor],-15%
TRPML1 blocker,-6,-4,7,-3,15,6,11,3
Menin MLL FP FL,4.0,-5.6,0.5,/,-0.6,-2.0,/,-0.1
gsp antagonist,-16%,-30%,10%,-1%,-10%,17%,9%,?

[9] Brc1ccc(C2NCCS2)cc1 (stereo unspecified)
[10] C=CC[C@@H](CC(=O)NCCO)C(=O)NC[C@H](OC(=O)[C@@H](CC=C)Cc1ccc(F)cc1)c1ccccc1
[11] COc1cc(NC(=O)CN(c2ccc(C)cc2)S(=O)(=O)c2cccc3nonc23)cc(OC)c1
[12] O=C(CN1C(=O)NC2(CCCCCCC2)C1=O)NC(=O)NCc1ccco1
[13] O=C(Cc1cccs1)NCC1CCCO1 (stereo unspecified)
[14] CCOc1ccc(-c2nc(-c3ccccc3)c(-c3ccccc3)[nH]2)cc1OCC
[15] COC(=O)CC/C(O)=C1\C(=O)CC(C)(C)CC1=Nc1ccccc1OC
[16] COc1ccc(N2CC(C(=O)Nc3cccc(C)n3)CC2=O)cc1 (stereo unspecified)

assay / entry,9,10,11,12,13,14,15,16
TRPML1 agonist,-0.1,0.2,1.1,1.3,-0.5,4.8,-0.1,0.0
ClpP mod,/,0.3%,-3.1%,-2.0%,-7.8%,4.8%,1.1%,0.1%
gsp ag,2%,?,/,0%,-17%,/,?,-49%[inhibitor]
TRPML1 blocker,-14,-7,-1,-16,10,-3,-5,-3
Menin MLL FP FL,-2.2,/,/,0.0,-1.4,/,0.8,0.5
gsp antagonist,10%,-8%,/,6%,1%,/,16%,-5%

[17] CCCC1(CCC)NC(=O)N(CC(=O)Nc2cccc(OC)c2)C1=O
[18] Cc1cccc(C(=O)Nc2nc(-c3ccc(Br)cc3)ns2)c1
[19] O=S(=O)(Nc1ccc(Cc2ccncc2)cc1)N1CCCC1
[20] Oc1cccc(C(Nc2ccccn2)c2ccc3cccnc3c2O)c1Cl (stereo unspecified)
[21] Cc1cccc(C)c1N/C=C/c1onc(C)c1[N+](=O)[O-]
[22] CCCC(=O)Nc1ccc2nc(SCc3ccc(C)cc3)sc2c1
[23] COc1ccc(-c2nc(C(N)=O)c3c(n2)n(-c2ccccc2OC)c(=O)n3C)c(OC)c1
[24] COc1cc(/C=C/C(=O)OCC(=O)N2CCC(C)CC2)ccc1O

assay / entry,17,18,19,20,21,22,23,24
TRPML1 agonist,0.0,1.3,1.4,-1.1,-0.3,0.3,5.2,-0.2
ClpP mod,2.1%,0.8%,-0.4%,-1.1%,-1.8%,4.2%,-2.3%,-30%
gsp ag,8%,/,-45%[inhibitor],/,-38%[inhibitor],/,/,5%[15.4 µM]
TRPML1 blocker,-22,-30,8,-13,-5,-16,-11,1
Menin MLL FP FL,-1.4,/,-1.5,/,0.3,/,/,/
gsp antagonist,-1%,/,-6%,/,8%,/,/,4%

[25] O=C(C1Cc2ccccc2CN1C(=O)c1ccco1)N1CCN(c2ccccc2)CC1 (stereo unspecified)
[26] C[C@H](CO)N1C[C@H](C)[C@@H](CN(C)Cc2ccc(-c3ccccc3)cc2)Oc2c(NS(=O)(=O)c3cn(C)cn3)cccc2C1=O
[27] c1ccc2c(c1)COc1c3ncccc3nn1-2
[28] O=C(O)C1CCCCC1C(=O)Nc1ccc(OCc2ccccc2)cc1 (stereo unspecified)
[29] Cc1ccc2c(CC(=O)Nc3cccc(Cl)c3C)coc2c1
[30] c1ccc(COC(CN2CCCCCC2)CN2CCCCCC2)cc1
[31] COCCNC(=O)CCc1nnc2ccc(N3CCC(C)CC3)nn12
[32] O=C(CC(=O)NN=C1CCCCCC1)NCc1cccnc1

assay / entry,25,26,27,28,29,30,31,32
TRPML1 agonist,0.4,-0.2,0.2,-0.2,-0.2,0.1,/,0.9
ClpP mod,-2.8%,-16%,4.1%,-0.1%,1.3%,0.7%,-2.0%,/
gsp ag,-48%[inhibitor],/,?,?,/,2%,?,-6%[15.4 µM]
TRPML1 blocker,0,5,9,5,11,33,/,11
Menin MLL FP FL,/,/,/,4.7,/,3.9,0.8,-2.8
gsp antagonist,-10%,-20%,/,-12%,/,11%,10%,/

[33] O=C(NC1CCCCC1)N(Cc1nc2ccccc2c(=O)[nH]1)C1CCCCC1
[34] O=C(CSc1nnc(-c2ccccc2)n1Cc1ccco1)NCc1ccc2c(c1)OCO2
[35] CCCCC(=O)NC(c1ccc(Cl)cc1Cl)c1ccc2cccnc2c1O (stereo unspecified)
[36] O=C(NCc1ccncc1)c1ccc(NS(=O)(=O)c2cccc([N+](=O)[O-])c2)cc1
[37] CCOC(=O)c1ccc(NC(=O)C(CC)Sc2nc3ncccc3[nH]2)cc1 (stereo unspecified)
[38] COc1ccc(C(=O)O)cc1S(=O)(=O)N(CCc1ccccc1)Cc1ccccc1
[39] CCC(C)NS(=O)(=O)c1ccc(NC(C)=O)cc1 (stereo unspecified)
[40] CCNC(=O)/C(=C\C=C\c1ccccc1)NC(=O)c1ccc(Br)o1

assay / entry,33,34,35,36,37,38,39,40
TRPML1 agonist,-0.8,1.0,3.6,-0.2,0.0,/,1.3,-0.2
ClpP mod,-19%,-1.4%,/,2.8%,-0.5%,0.7%,-0.9%,3.2µM*
gsp ag,0%,-26%,9%,-30%,/,?,?,5%
TRPML1 blocker,7,-1,7,2,-3,/,-11,-7
Menin MLL FP FL,4.6,0.8,-9.1,/,/,1.1,0.3,0.5
gsp antagonist,1%,3%,-11%,16%,/,-12%,1%,2%

Whole records from above. Screens in order: TRPML1 agonist	ClpP mod	gsp ag	TRPML1 blocker	Menin MLL FP FL	gsp antagonist
Shown for CCNC(=O)/C(=C\C=C\c1ccccc1)NC(=O)c1ccc(Br)o1 : -0.2	3.2µM*	5%	-7	0.5	2%
Shown for CCCCC(=O)NC(c1ccc(Cl)cc1Cl)c1ccc2cccnc2c1O (stereo unspecified) : 3.6	/	9%	7	-9.1	-11%

Additional records:
[41] COC(=O)Nc1ccc(S(=O)(=O)NC2CCCCC2)cc1
[42] CCC(=O)c1ccc(OCC(=O)NNC(=O)c2cc(C)oc2C)cc1
[43] CC1CCc2nc(NC(=O)C3CC3)sc2C1 (stereo unspecified)
[44] CC(C)CC(=O)Nc1ccccc1N1CCN(c2ccccc2)CC1
[45] Cc1cccc(NC(=O)C2(C)CC3c4ccccc4C2c2ccccc23)c1 (stereo unspecified)
[46] O=[N+]([O-])c1ccc(Cl)cc1C=NNc1ccccn1
[47] Nc1ccccc1C(=O)Nc1cccc2ccccc12
[48] CCN1C(=O)c2ccc(C(=O)O)cc2C1=O

assay / entry,41,42,43,44,45,46,47,48
TRPML1 agonist,-0.5,0.4,1.1,-0.5,-1.3,0.7,-0.4,0.1
ClpP mod,0.3%,0.8%,-12%,0.0%,1.8%,1.2%,-13%,-4.8%
gsp ag,-12%,-11%[15.4 µM],?,8%,-13%,-17%,9%,22%
TRPML1 blocker,6,-20,-1,-4,-10,-8,-10,-10
Menin MLL FP FL,/,/,-0.9,-2.9,1.0,/,3.6,-1.3
gsp antagonist,18%,1%,6%,-2%,9%,-8%,-4%,-10%

[49] CC(=O)Nc1ccc(N2CCOCC2)c([N+](=O)[O-])c1
[50] O=C(NCC(c1ccco1)N1CCOCC1)c1cccc(Cl)c1 (stereo unspecified)
[51] CC1(c2nnc(Cc3ccccc3)o2)CC(c2ccccc2F)=NO1 (stereo unspecified)
[52] CCOC(=O)c1c(NC(=S)Nc2ccccc2C)sc2c1CCC2
[53] COc1ccccc1-c1cc(C(=O)NCc2ccccc2)c2c(-c3ccc(C)cc3)[nH]nc2n1
[54] CC1(C)CC(=O)C(CC(=O)Nc2cc(C(F)(F)F)ccc2Cl)C(=O)C1
[55] Cn1c(N)c(C(=O)COC(=O)C2CC(O)CN2S(=O)(=O)c2ccc(Cl)cc2)c(=O)n(C)c1=O (stereo unspecified)
[56] CC#CCN(CC#CC)S(=O)(=O)c1ccc(-n2cnnn2)c(OC)c1

assay / entry,49,50,51,52,53,54,55,56
TRPML1 agonist,0.8,-0.8,-0.4,0.7,-0.7,-0.6,2.6,-0.9
ClpP mod,/,/,0.3%,-1.8%,?,/,/,?
gsp ag,2%,12%[15.4 µM],-1%,?,/,-8%[15.4 µM],21%[15.4 µM],-39%[inhibitor]
TRPML1 blocker,23,2,-8,-1,-15,7,-1,7
Menin MLL FP FL,3.8,/,/,3.0,/,-5.3,2.3,1.8
gsp antagonist,7%,-2%,-3%,-34%,/,-26%,11%,-8%

By substructure: the entries above containing bromine (three)
[9] Brc1ccc(C2NCCS2)cc1 (stereo unspecified)
[18] Cc1cccc(C(=O)Nc2nc(-c3ccc(Br)cc3)ns2)c1
[40] CCNC(=O)/C(=C\C=C\c1ccccc1)NC(=O)c1ccc(Br)o1

assay / entry,9,18,40
TRPML1 agonist,-0.1,1.3,-0.2
ClpP mod,/,0.8%,3.2µM*
gsp ag,2%,/,5%
TRPML1 blocker,-14,-30,-7
Menin MLL FP FL,-2.2,/,0.5
gsp antagonist,10%,/,2%
